MT1-MMP act inh: blocks activation of human MT1-MMP. HT1080 RFP-PRO-GFP cells, GFP/RFP ratio fluorescence, overnight; percent of plate control window, DMSO zero. P50281. actives 0.061% (n = 360,000). AID 651647. GFP/RFP ratio change, % at 20 µM;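 active means GFP/RFP ratio change of at least 30% with cell ATP level not reduced by more than half and red fluorescence within 50% of control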; further: strong numbers were not always called active
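Assay system: HT1080 RFP-PRO-GFP cells. Benchmarks: DMSO vehicle wells and RFP-L50D-GFP reporter cell wells. Times: overnight cell settling, then overnight compound exposure, 37 °C, 5% CO2. Compound: 20 µM single dose, 1% DMSO. Read-out basis: GFP/RFP fluorescence ratio.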
HIV Env fusion: blocks HIV Env-driven cell-cell fusion. actives 1.1% (n = 360,000). HeLa-JRFL Env/CEM21 cell fusion, luciferase. AID 651610. inhibition, % at 12.3 µM;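 active means mean replicate inhibition score of at least 50 and every replicate individually at or above 50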;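 further: 0% = plate neutral controls and 100% = maraviroc near 300 nM; one replicate is shown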
PABP FP inh: blocks human PABP binding to poly(A) RNA; P11940; fluorescence polarization; inhibition, % at 35 µM; actives 1% (n = 290,000);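 active means 50% or more with normal probe brightness, or confirmed in later tests; about a fifth of its hits are not listed in these tables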;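 further: calls also rest on retests at 20 µM and on dose response follow-up; controls were probe without protein and protein plus probe with vehicle; some compounds called inactive have numbers as strong as hits; many hits fall short of the cut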
Target sequence (P11940 whole entry, looked up): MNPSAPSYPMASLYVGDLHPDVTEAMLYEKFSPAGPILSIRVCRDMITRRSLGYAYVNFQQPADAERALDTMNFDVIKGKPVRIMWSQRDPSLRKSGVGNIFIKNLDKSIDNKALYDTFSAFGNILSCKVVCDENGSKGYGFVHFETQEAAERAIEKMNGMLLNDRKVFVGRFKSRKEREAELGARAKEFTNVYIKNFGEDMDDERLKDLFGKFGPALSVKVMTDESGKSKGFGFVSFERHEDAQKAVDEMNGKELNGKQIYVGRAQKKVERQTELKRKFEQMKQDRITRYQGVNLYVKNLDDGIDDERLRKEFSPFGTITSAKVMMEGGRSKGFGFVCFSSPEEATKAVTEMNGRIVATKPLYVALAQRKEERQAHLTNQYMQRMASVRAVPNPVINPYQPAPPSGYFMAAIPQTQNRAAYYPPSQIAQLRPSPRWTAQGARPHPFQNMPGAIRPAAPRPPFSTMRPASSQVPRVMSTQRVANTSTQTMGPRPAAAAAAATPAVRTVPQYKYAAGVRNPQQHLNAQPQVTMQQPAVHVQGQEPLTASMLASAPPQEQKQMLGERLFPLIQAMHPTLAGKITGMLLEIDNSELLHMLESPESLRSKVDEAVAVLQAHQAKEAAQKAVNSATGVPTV
Yeast UUG start: alters start codon recognition fidelity in yeast; AID 602363; S. cerevisiae UUG-firefly luciferase reporter, luminescence/redox ratio; actives 0.13% (n = 350,000); activity score, % at 18.7 µM;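 active means replicate mean at a twofold rise or more, about +100% in these data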;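 further: firefly luciferase made from a UUG start codon reports start codon fidelity; reporter light over untreated wells divided by growth signal over untreated wells; some hits fall short of that in this replicate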
eIF4H inh: inhibitors of RNA binding by human eIF4H; Q15056; eIF4H fluorescence polarization binding assay; inhibition, % at 35 µM; actives 0.94% (n = 290,000); AID 2012;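 active means 50% or more with normal probe brightness, or confirmed in later tests; about a fifth of its hits are not listed in these tables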;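 further: calls also rest on retests at 20 µM and on dose response follow-up; 0% = protein and probe with vehicle and 100% = probe without protein; strong numbers were not always called active; many hits fall short of the cut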
CSC inhib: cancer stem cell inhibition. cancer stem cell-like cells viability, luminescence. inhibition, % at 7.5 µM. actives 1.1% (n = 300,000). AID 2717;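 active means mean at 75% or more and at least half the replicates too; tested in HMLE shEcad cells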;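 further: 0% = median of negative and 100% = median of positive control wells; the first replicate is given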
Rce1 inh: inhibitors of yeast Ras-converting enzyme; yeast membranes, quenched prenylated peptide cleavage fluorescence; calls only; actives 0.27% (n = 290,000); AID 2563;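 active means fall in fluorescence gain of 50% or more versus controls, with final raw signal at or below 3038400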;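 further: plate controls were neutral control wells for no effect and wells lacking membranes for full effect; tested at 10 µM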
Target sequence (Q03530 whole entry, looked up): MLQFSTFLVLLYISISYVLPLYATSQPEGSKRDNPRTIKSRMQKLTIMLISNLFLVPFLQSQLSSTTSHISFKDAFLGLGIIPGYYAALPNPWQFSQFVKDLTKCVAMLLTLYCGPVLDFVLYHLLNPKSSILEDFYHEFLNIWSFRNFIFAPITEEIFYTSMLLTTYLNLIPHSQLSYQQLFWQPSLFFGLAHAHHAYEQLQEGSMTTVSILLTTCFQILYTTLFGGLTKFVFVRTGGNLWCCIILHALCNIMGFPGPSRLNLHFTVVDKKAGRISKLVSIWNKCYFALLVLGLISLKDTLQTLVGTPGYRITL
eIF4H inh retest: further read-out of eIF4H inh, marked with its call; inhibition, %; compound at 20 µM; confirmation average;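 mean of two retest wells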
PABP FP inh retest: second read-out of PABP FP inh, no call of its own (marks repeat the call); inhibition, %; compound at 20 µM; confirmation repeats;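 mean of two retest wells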
MT1-MMP act inh RFP: recorded beside MT1-MMP act inh, whose call it bears; RFP signal change, %; measured here: RFP expression control read;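 0 = vehicle wells; hits needed this value within 50% of zero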
Active calls of the source: *; i = inactive; . = no result given. An unsorted share of the library; 3% or so of the library scored in one or more.

SMILES	MT1-MMP act inh	MT1-MMP act inh RFP	HIV Env fusion	PABP FP inh	Yeast UUG start	eIF4H inh	CSC inhib	Rce1 inh	others
COc1ccc(C(=NN)c2ccc(OC)cc2)cc1	2	2	-24	.	.	.	5	i
C/C(=N\S(=O)(=O)c1ccc(C)cc1)NC(=S)Nc1ccc(C)cc1	-1	4	-12	0	-29	-6	1	i
CC(C)Sc1ncc(S(=O)(=O)c2ccccc2)c(=O)[nH]1	3	6	14	6	.	37	-6	i
CCOP1(=O)OCC2OC(n3cnc4c(N)ncnc43)C(O)C2O1 (centres undefined)	-3	8	4	-6	-4	-3	-5	i
O=C(NN1C(=O)C2C(C1=O)C1C=CC2C12CC2)c1ccc(Cl)cc1 (centres undefined)	-4	-4	9	6	-10	4	-13	i
CCCCn1c(N)c(N(C(=O)CSc2nnnn2-c2ccccc2)C2CCCC2)c(=O)[nH]c1=O	0	1	.	.	-21	.	15	.
CC(CCCC(C)(C)O)NC(=O)c1ccc2oc(CCc3ccccc3)nc2c1 (centres undefined)	4	-10	4	5	-11	0	-1	i
CCc1nc2ccc(C(=O)NCCOc3ccc(OC)cc3)cn2c1N(C)C(=O)C1CCCCC1	-16	-15	-9	.	0	.	.	.
N#C/C(=C\c1ccc(OCc2ccc(C(=O)O)cc2)cc1)C(=O)NCc1ccccc1	2	2	-30	5	-14	14	.	i
Cc1ccc(C)c(S(=O)(=O)N2CCN(C(=O)c3cccnc3)CC2)c1	2	2	-8	9	-36	-9	-3	i

Structures from the list above that contain an aryl thioether with sulfur outside any ring:
SMILES	MT1-MMP act inh	MT1-MMP act inh RFP	HIV Env fusion	PABP FP inh	Yeast UUG start	eIF4H inh	CSC inhib	Rce1 inh	others
CC(C)Sc1ncc(S(=O)(=O)c2ccccc2)c(=O)[nH]1	3	6	14	6	.	37	-6	i
CCCCn1c(N)c(N(C(=O)CSc2nnnn2-c2ccccc2)C2CCCC2)c(=O)[nH]c1=O	0	1	.	.	-21	.	15	.

Returning to the listing, starting seven compounds before the break.
SMILES	MT1-MMP act inh	MT1-MMP act inh RFP	HIV Env fusion	PABP FP inh	Yeast UUG start	eIF4H inh	CSC inhib	Rce1 inh	others
CCOP1(=O)OCC2OC(n3cnc4c(N)ncnc43)C(O)C2O1 (centres undefined)	-3	8	4	-6	-4	-3	-5	i
O=C(NN1C(=O)C2C(C1=O)C1C=CC2C12CC2)c1ccc(Cl)cc1 (centres undefined)	-4	-4	9	6	-10	4	-13	i
CCCCn1c(N)c(N(C(=O)CSc2nnnn2-c2ccccc2)C2CCCC2)c(=O)[nH]c1=O	0	1	.	.	-21	.	15	.
CC(CCCC(C)(C)O)NC(=O)c1ccc2oc(CCc3ccccc3)nc2c1 (centres undefined)	4	-10	4	5	-11	0	-1	i
CCc1nc2ccc(C(=O)NCCOc3ccc(OC)cc3)cn2c1N(C)C(=O)C1CCCCC1	-16	-15	-9	.	0	.	.	.
N#C/C(=C\c1ccc(OCc2ccc(C(=O)O)cc2)cc1)C(=O)NCc1ccccc1	2	2	-30	5	-14	14	.	i
Cc1ccc(C)c(S(=O)(=O)N2CCN(C(=O)c3cccnc3)CC2)c1	2	2	-8	9	-36	-9	-3	i
CN(CC(=O)N1CCN(c2ccccc2)CC1)C1CCCc2ccccc21 (centres undefined)	-2	5	2	-3	-13	-1	-6	i
CC1CN(CCc2ccccc2)c2nc3c(c(=O)n(CC(N)=O)c(=O)n3C)n2C1 (centres undefined)	-4	-2	16	9	-17	3	8	i
Cc1ccc(OCC(=O)NNC(=O)c2ccc(-n3cncn3)c([N+](=O)[O-])c2)cc1	-2	2	-10	.	.	.	-2	.
CCNC(=O)C1CC(=O)N(CCCc2ccccc2)C(=Nc2ccccc2)S1 (centres undefined)	-2	-2	0	-3	.	-2	3	i
O=C(Oc1ccc2c(c1)OCO2)c1cccs1	0	6	.	6	-14	4	-5	i
CCCS(=O)(=O)NC(=O)C1(C)CCCN(C(=O)c2ccccc2C(F)(F)F)C1 (centres undefined)	0	6	2	.	-45	.	.	.
Cc1ccc(OCC(=O)NC2CCS(=O)(=O)C2)cc1 (centres undefined)	9	2	.	1	-6	-2	-22	i
CCC(Cc1ccccc1)NC(=O)CCn1cccc1 (centres undefined)	3	4	-30	1	.	-8	-14	i
O=C(Cn1cnnn1)NCCc1ccc(Cl)cc1Cl	-2	-3	-64	6	-7	-5	-9	i
O=C1C2C3C=CC(C3)C2C(=O)N1CNc1ccc(O)cc1 (centres undefined)	.	.	.	34	.	45	-2	i
COc1ccccc1NS(=O)(=O)c1ccc(N2CCOCC2)c(N)c1	1	-6	-45	.	-11	.	-6	.
c1ccc(CCNCC2COc3ccccc3O2)cc1 (centres undefined)	-2	2	-8	10	-10	10	-3	i
Cc1cc(S(=O)(=O)/N=C(\N)c2ccc(C(N)=O)cc2)cc(C)c1F	-6	-4	9	0	-1	-6	-4	i
COc1ccc(C2C(C(=O)NCc3ccccn3)CCC(=O)N2c2cc(OC)c(OC)c(OC)c2)cc1 (centres undefined)	4	1	-10	-12	-10	-11	.	i
CC(=O)n1c(Cl)c(NC(=O)CCl)c2ccccc21	-4	-1	.	4	-8	-5	5	i
COc1ccccc1CNC(=O)Cc1ccc(Br)cc1	3	0	-24	-12	.	-5	13	i
CC1CCCN(CC(O)COCc2ccc3c(c2)OCO3)C1 (centres undefined)	-2	1	-5	-8	-6	12	-17	i
O=C(CN1CCN(Cc2ccccc2F)C1=O)NCc1cccnc1	0	0	-8	-15	-21	6	5	i
CCCCN(C)C(=O)c1cc2c(s1)-c1ccccc1S(=O)(=O)C2	4	5	1	8	8	-1	17	i
CCOC(=O)N1CCc2c(sc3c2c(=O)n(Cc2ccccc2)c(=O)n3Cc2ccc(C)cc2)C1	-3	-1	-4	2	-18	4	14	i
CCOC(=O)CCc1c(C)nc2cc(-c3ccc(F)cc3)[nH]n2c1=O	1	4	.	-3	-23	7	2	i
O=C1CCCN1CCCNc1ncnc2c1[nH]c1ccc(Cl)cc12	4	-2	.	-4	-1	8	-1	i
O=C(O)c1[nH]c2ccccc2c1-c1ccccc1	-9	4	.	-7	-7	7	.	i
COc1cccc(C(C(=O)NC(C)(C)C)N(C(=O)CCC(=O)Nc2cc(C)on2)c2ccc3c(c2)OCCO3)c1OC (centres undefined)	-2	2	6	1	10	15	12	i
Nn1c(SCC(=O)Nc2c(Cl)cccc2Cl)nncc1=O	0	2	.	.	-18	.	-8	i
CC(C)c1ccc(NC(=O)CN2CCN(C(=O)C3CCCO3)CC2)cc1 (centres undefined)	0	1	-30	-1	-11	5	2	i
Nc1cccc(Oc2cnccn2)c1	1	-2	-2	13	-20	-5	1	i
COc1ccccc1CNC(=O)COC(=O)CSc1ccc(C)c(C)c1	-2	1	68*	.	0	.	.	.
CC(C)(C)NC(=O)NC(=O)CN1CCN(c2ccccc2O)CC1	5	3	-28	4	.	-1	-7	i
O=C(CSc1nc2ccccc2c(=O)n1C1CC1)NCc1ccccc1	4	-2	-75	-11	1	-5	-9	i
CCOC(=O)C1CCCN(C(=O)CCc2nc3sc4c(c3c(=O)[nH]2)CCCC4)C1 (centres undefined)	-3	3	8	.	6	.	.	.
CCCCN(CC)CCNC(=O)C1CCN(S(=O)(=O)c2cccc3nsnc23)CC1	-1	4	8	-6	1	-2	3	i
COc1ccc(C2C=C(C)Nc3ncnn32)cc1 (centres undefined)	0	3	-43	.	-22	.	-25	i
Nc1nc(CN2CCc3ccccc3C2)nc(Nc2ccccc2)n1	-6	-2	-40	6	-20	-4	.	i
COc1ccc2nc(COC(=O)c3ccco3)c(C(C)=O)[n+]([O-])c2c1	-2	-1	.	1	-5	13	-5	i
COc1ccc(-c2c(C(F)(F)F)nn(C)c2NC(=O)c2cccnc2)cc1	-5	-1	-8	-1	-13	-1	11	i
N/C(=N\C(=S)Nc1ccccc1)c1ccccc1	5	5	-93	-5	-24	-7	10	i
COc1ccc(C=C(c2ccc(OC)cc2)c2ccc(OC)cc2)cc1	-3	-4	.	-7	-15	12	50	i
C#CC(CC)(CC)NC(=O)Nc1ccccc1C(=O)OC	-7	-1	4	-20	-1	-4	-8	i
CC(=O)N1CCc2c(sc(NC(=O)c3cccc(N4C(=O)CCC4=O)c3)c2C(N)=O)C1	-7	2	.	1.5*	12	57	-1	i	eIF4H inh retest=-13;PABP FP inh retest=69*
CCCCCCCC1(C)NC(=O)N(CC(=O)Nc2cc(C)on2)C1=O (centres undefined)	4	1	-26	6	.	6	-5	i
O=C1Nc2ccccc2OCc2c1cccc2[N+](=O)[O-]	2	3	19	13	.	4	-1	i
CCOc1ccc(C(=O)N2CCN(c3ccccn3)CC2)cc1OCC	2	1	5	2	4	-7	1	i
CC1=C(C(=O)N2CCOCC2)C(c2ccc(Br)cc2)NC(=S)N1c1ccccc1 (centres undefined)	0	-1	8	-6	.	-5	-3	i
CC1CN(C(=O)c2ccc(-c3ccccc3Cl)o2)CC(C)O1 (centres undefined)	1	3	-15	.	-2	.	16	i
O=C(Nc1ccc2c(c1)C(=O)NC2=O)c1ccccc1Cl	0	2	-11	-10	-16	-11	-11	i
CC(=O)NC(Cc1ccc(O)cc1)C(=O)NN (centres undefined)	2	6	-5	-8	.	7	-10	i
Cc1ccc(-n2c(C)nnc2SCC(=O)N(C)c2c(N)n(Cc3ccccc3)c(=O)[nH]c2=O)cc1	-5	-1	-5	.	-44	.	8	.
CCOC(=O)c1sc(/N=C/Nc2nc(C)c(C(=O)OCC)s2)nc1C	2	4	.	10	-7	-16	.	.
C#CCOCCOCCOCCNc1nc(N2CCN(C(=O)[C@H]([C@@H](C)CC)n3cc([C@@H](N)CO)nn3)CC2)nc(N2CCN(C(=O)[C@H]([C@@H](C)CC)n3cc([C@@H](N)Cc4ccc(O)cc4)nn3)CC2)n1	-8	1	.	25	-3	25	-2	i

Continuation.
SMILES	MT1-MMP act inh	MT1-MMP act inh RFP	HIV Env fusion	PABP FP inh	Yeast UUG start	eIF4H inh	CSC inhib	Rce1 inh	others
COCCNC(=O)c1oc2ccc3c(c2c1C)C(O)CC(C)(C)O3 (centres undefined)	5	5	-1	-6	7	11	-6	i
C=CCn1c(SCC(=O)Nc2ccc(C(=O)O)cc2)nnc1-c1cccnc1	-5	2	-6	6	-18	-9	.	i
CCN(CC)C(=O)CCc1nc2sc3c(c2c(=O)[nH]1)CCCC3	2	1	-10	-7	-37	-6	6	i
CNc1oc(-c2ccccc2Cl)nc1P(=O)(c1ccccc1)c1ccccc1	-7	-5	.	-7	.	3	6	i
Cc1ccc2ccc3ccc(C)nc3c2n1	0	-8	.	-21	-28	11	8	i
O=C(Nc1cccc(Cl)c1)N1CCN(C/C=C/c2ccccc2)CC1	4	0	16	3	.	-2	2	i
O=C1NCCCC1C(=O)N/N=C/c1ccccc1[N+](=O)[O-] (centres undefined)	7	2	-15	-4	.	-7	-4	i
